Compound activity (PubChem)
NPYLR7 agonist – activates Aedes aegypti NPYLR7 receptor; HEK293T NPYLR7/Galpha15, GCaMP6s calcium fluorescence; activation, % at 10 µM; 270,000 compounds, 0.15% hits; AID 1259423; in the data active means activation above about 40%;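 further: 0% = vehicle and 100% = reference agonist at the receptor; some compounds past the cut are filed as inactive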
NPYLR7 agonist max-min – also measured in NPYLR7 agonist; calls as there; activation, %; measured here: Max-Min RFU normalised activation; some inactives read as strong as hits;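 span of the calcium signal over five minutes; 0% = vehicle and 100% = native peptide agonist; compound fluorescence can raise it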
* marks the source's active call; other numbers are inactive results; & = joins results of further samples. This is a subset. The share of hits here may be higher or lower than overall.

The first 16 records, to show the layout:
Compound	NPYLR7 agonist max-min	NPYLR7 agonist
CCC1(CO)CCCN1Cc1cc2ccc(C)cc2[nH]c1=O (stereo not given)	4	4
COCCCn1cc(C(=O)Nc2cc(C)ccn2)c2nn(-c3ccccc3)c(=O)c-2c1	4	5
CC(C)CCN1C(=O)C2(NN(CCO)C(=Nc3ccccc3)S2)c2ccccc21 (stereo not given)	-1	0
NC(=O)c1cnc2n1CCN(C(=O)Cn1c(C3CC3)nc3ccccc31)C2	-6	-5
Cc1sc(-c2c(C#N)c(N)nc3c2CCCCCC3)cc1[N+](=O)[O-]	1	3
O=C(c1cccnc1S(=O)(=O)C(F)(F)F)N1CCCc2ccc(F)cc21	7	8
CC(=O)Nc1ccc(SCCCC(=O)Nc2ccncc2)nn1	2	1
NC(=O)C1CCCN1CCc1cccs1 (stereo not given)	5	6
O=C(OCC(=O)c1ccc[nH]1)c1ccc(COc2ccccc2)cc1	7	15
CCOC(=O)c1ccc(CNC(=O)c2cnc(C)nc2C)o1	-15	-18
Cc1cc(C)cc(CCC(=O)N(Cc2ccncc2)C2CCN(C)CC2)c1	6	12
COc1ccc(-c2nc(OCc3ccc(F)cc3)nn2-c2ccc(NC(=O)C3CCC3)cc2)cc1	24	10
CCCCN(Cc1cccn1Cc1ccc(Br)cc1)C(=O)CN(CCCOC)S(=O)(=O)c1ccc(F)cc1	35	34
Cc1cccc(CC(=O)Nc2c(C)nc3scc(C)n3c2=O)c1	-1	4
CSc1cccc(CNC(=O)COc2ccc(N3CCN(c4ccccn4)CC3)nn2)c1	11	19
CCCNC(=O)c1c(C)c(CC)c(C)n1CC	6	2

The listing (from the top)
Compound	NPYLR7 agonist max-min	NPYLR7 agonist
CCC1(CO)CCCN1Cc1cc2ccc(C)cc2[nH]c1=O (stereo not given)	4	4
COCCCn1cc(C(=O)Nc2cc(C)ccn2)c2nn(-c3ccccc3)c(=O)c-2c1	4	5
CC(C)CCN1C(=O)C2(NN(CCO)C(=Nc3ccccc3)S2)c2ccccc21 (stereo not given)	-1	0
NC(=O)c1cnc2n1CCN(C(=O)Cn1c(C3CC3)nc3ccccc31)C2	-6	-5
Cc1sc(-c2c(C#N)c(N)nc3c2CCCCCC3)cc1[N+](=O)[O-]	1	3
O=C(c1cccnc1S(=O)(=O)C(F)(F)F)N1CCCc2ccc(F)cc21	7	8
CC(=O)Nc1ccc(SCCCC(=O)Nc2ccncc2)nn1	2	1
NC(=O)C1CCCN1CCc1cccs1 (stereo not given)	5	6
O=C(OCC(=O)c1ccc[nH]1)c1ccc(COc2ccccc2)cc1	7	15
CCOC(=O)c1ccc(CNC(=O)c2cnc(C)nc2C)o1	-15	-18
Cc1cc(C)cc(CCC(=O)N(Cc2ccncc2)C2CCN(C)CC2)c1	6	12
COc1ccc(-c2nc(OCc3ccc(F)cc3)nn2-c2ccc(NC(=O)C3CCC3)cc2)cc1	24	10
CCCCN(Cc1cccn1Cc1ccc(Br)cc1)C(=O)CN(CCCOC)S(=O)(=O)c1ccc(F)cc1	35	34
Cc1cccc(CC(=O)Nc2c(C)nc3scc(C)n3c2=O)c1	-1	4
CSc1cccc(CNC(=O)COc2ccc(N3CCN(c4ccccn4)CC3)nn2)c1	11	19
CCCNC(=O)c1c(C)c(CC)c(C)n1CC	6	2
COc1ccc(N2C(=O)C3SC(=N)C(C#N)C4(CCCC4)C3C2=O)cc1 (stereo not given)	-2	0
COc1ccc(CNC(=O)c2csc(COC(=O)c3ccccc3)n2)c(OC)c1	-15	-8
COCC1CCN(Cc2cc3n(n2)CCNC3)C1 (stereo not given)	4	6
Cc1c(CCc2ccncc2)c(=O)n2c([nH]c3ccccc32)c1C#N	5	0
C#CCN(C/C=C/c1ccc(C#N)cc1)S(=O)(=O)c1ccc(C)cc1	-3	1
CN(c1ccc(Br)cc1Cl)S(=O)(=O)/C=C/c1ccc(Cl)cc1	26	29
COc1ccc2cc(S(=O)(=O)NCc3ccco3)ccc2c1	-1	3
COC(=O)N1CCC(NC(=O)NCCOc2ccc3c(c2)CCC3)CC1	7	9
O=c1nc(SCc2cccc(C(F)(F)F)c2)c2c([nH]1)CCCC2	-1	1
Cc1cc(NC(=O)c2cc(Cl)cc(Cl)c2OC(F)F)no1	4	4
CCCC(=O)NC(NC(C)(C)C)C(Cl)(Cl)Cl (stereo not given)	3	6
CCC(C)NC(=O)C(NC(=O)c1cccc(OC)c1)C1CCN(C(=O)Nc2cccc(Cl)c2)CC1 (stereo not given)	16	12
COc1cc2c(cc1OC)CN(Cc1ncccc1C(=O)O)CC2	15	2
CC1(C)CC2CC(C)(CN2C(=O)CCN2C(=O)c3ccccc3C2=O)C1 (stereo not given)	-8	-5

Compound	NPYLR7 agonist max-min	NPYLR7 agonist
C=CCN(Cc1csc(COc2cccc(Cl)c2)n1)C(=O)c1ccccc1F	-1	-5
O=C(NCCc1ccccc1)C(C1CCCC1)N1CCN(C(=O)c2ccc(Cl)cc2)CC1 (stereo not given)	-3	-6
CCc1nc2n(n1)C(=O)C(C(c1cccc(Cl)c1)N1CCC3(CC1)OCCO3)S2 (stereo not given)	-11	-5
O=C(NC(c1ccc2ccccc2n1)c1cccs1)C1CCN(C/C=C/c2ccccc2)CC1 (stereo not given)	4	3
COC(=O)C1=C(C)NC(C)=C(C(=O)OC)C1C(=O)OCC(=O)NC(C)C	8	1
CCn1c(=O)c2c(nc3n(CCN4CCOCC4)c(C)c(C)n23)n(C)c1=O	27	-2
O=C(Cn1cnc([N+](=O)[O-])n1)Nc1ccc(F)cc1F	-16	-9
CC1(C(=O)Nc2cccc(C#N)c2)CCN1C(=O)C1(c2ccccc2)CCCC1 (stereo not given)	12	-3
CN(CCS(=O)(=O)c1cc(Cl)ccc1Cl)Cc1ccc(F)cc1F	1	1
COCCN1CC(C(=O)NCc2cccc(OC(F)(F)F)c2)CCC1=O (stereo not given)	-10	-1
COc1ccc(-c2ccc3nnc(SCC(=O)N4CCN(c5ccccc5)CC4)n3n2)cc1	-6	-12
CN(Cc1cc(-c2ccccn2)no1)Cc1ncccc1C(=O)O	5	9
CCC(C)N(Cc1cc(Cl)ccc1OS(=O)(=O)c1ccc(F)cc1)C(=O)c1ccco1 (stereo not given)	25	20
Cc1cccc(OCC(=O)NC(C)c2cc3ccccc3o2)c1C (stereo not given)	-8	-6
CN(CCC#N)S(=O)(=O)CC12CCC(CC1=O)C2(C)C (stereo not given)	1	2
Cc1ccc(-c2[nH]ncc2CN2CCCN(C(=O)c3ccco3)CC2)cc1C	10	20
CCOc1ccc(-c2ccnc(N3CCN(C(=O)C45CC[C@@](C)(C(=O)O4)C5(C)C)CC3)n2)cc1	31	21
COc1ccc(OC)c(CNC(=O)C2Cc3ccccc3O2)c1 (stereo not given)	-1	-1
O=C(c1cccc(OC2CCN(Cc3cccn3-c3ccccn3)CC2)c1)N1CCCC1	3	6
O=C(CN1C(=O)CSC1=O)N1CCCC1	9	0
O=C(O)c1ccc(C2CCN(Cc3cccc(-n4cccn4)c3)C2)cc1 (stereo not given)	4	9
O=C(Nc1ccccc1)Nc1nc(S(=O)(=O)Cc2ccccc2)ns1	2	9
O=C(NN=Cc1cccs1)c1ccc([N+](=O)[O-])cc1	-9	-5
CC(C)(C)C(NC(=O)c1ccn2cncc2c1)c1ccccc1 (stereo not given)	-3	1
CN1CCCNC(=O)C12CCN(Cc1ccc(-n3ccnc3)cc1)CC2	-8	-2
c1cc2c(cc1CCc1nn3c(C4CC4)nnc3s1)OCO2	4	5
CC(=O)N1CCC(N2CCOC(CC3CCCCC3)C2)CC1 (stereo not given)	1	4
CCCCC(CC)C(=O)Nc1nnc(SCC(=O)c2ccc(OCc3ccccc3)cc2)s1 (stereo not given)	21	17
N#Cc1ccc(S(=O)(=O)N2CCN(C3c4ccccc4CCc4ccccc43)CC2)cc1	27	21
NC(=O)c1ccc(NC(=O)c2ccc(COc3ccc(F)cc3)o2)cc1	8	15

Compound	NPYLR7 agonist max-min	NPYLR7 agonist
NC(=O)N1CCCC(C(=O)NC2(CN3CCCC3)CCCCC2)C1 (stereo not given)	18	26
COc1ccc(/C=C(/F)c2nc3ccccc3s2)cc1	-1	-3
Cc1ccc(S(=O)(=O)N2CCN(c3nc4ccccc4nc3-c3ccccc3)CC2)cc1	4	8
CCCn1c(=NC(=O)C2=COCCO2)sc2c(C)cc(C)cc21	0	0
Oc1ccc(-c2csc(COc3ccccc3)n2)cc1O	1	5
CO[C@H]1[C@H](NC(=O)c2ccncc2)c2ccccc2C12CCN(C(=O)CCN1CCCO1)CC2	1	4
Cc1nn(C)c(Cl)c1CN(C)CC1CCCN(CCc2cccc(C(F)(F)F)c2)C1 (stereo not given)	-2	3
CCOC(=O)c1c(NC(=O)Cc2cccs2)sc(C(=O)Nc2ccccc2C)c1C	-5	-2
CCOC(=O)N1CCC(NC(=O)CC2C(=O)NCCN2CC2CCCCC2)CC1 (stereo not given)	-1	-1
Cc1ccc2ncc(CCNC(=O)c3cc4ccccc4[nH]3)n2c1	2	7
Cc1ccc(-c2cn[nH]c2C2CCCN(C(=O)C(=O)c3ccco3)C2)cc1 (stereo not given)	5	5
CCC(C)C(NC(=O)Nc1cc(OC)cc(OC)c1)C(=O)Nc1nnc(-c2ccc3c(c2)OCO3)s1 (stereo not given)	1	12
COc1cc(-c2cc(C(=O)NCc3c(Cl)cccc3Oc3ccccc3)c3ccccc3n2)cc(OC)c1OC	12	8
N#CC(C#N)=Cc1cn(-c2ccccc2)nc1-c1cccnc1	-1	1
CC1CCCC(c2ccccc2)N1S(=O)(=O)c1ccc(C(N)=O)cc1 (stereo not given)	1	10
CCn1c(O)c(N=NC(=O)c2ccncc2)c2cc(C)ccc21	-9	-3
CC(C(=O)O)c1cccc(Oc2ccccc2)c1 (stereo not given)	-16&-11&-5	-12&-5&-4
CCNC(=O)N(CCOC)CC(=O)N(Cc1ccc(F)cc1)Cc1ccc(C)s1	3	1
CC(=O)c1c(C)oc2ccc(NS(=O)(=O)c3ccc(C(C)C)cc3)cc12	-12	-8
CCc1nc(SCC(=O)N[C@@H]2C[C@H]2c2ccccc2)n[nH]1	-4	-1
COc1ccccc1/C=C1\C(=O)N(c2ccc(Cl)c(Cl)c2)N=C1C	13	5
Cc1cccn2c(=O)nc(SCCC3OCCO3)nc12	9	11
COCCOc1nc(-c2ccc(OC)cc2)n(-c2ccc(NC(=O)c3cccs3)cc2)n1	14	2
Cc1nc(CNC(=O)Cc2cnc3c(C)cccn23)nc2c1CCCC2	7	9
Cc1c(C(=O)NCC2CCCO2)c(CC(C)C)nn1-c1ccc([N+](=O)[O-])cc1 (stereo not given)	33	25
Cc1cccc(NC(=O)Cn2c(O)c(N=NC(N)=O)c3ccccc32)c1	-15	-9
COCCCN(Cc1ccc(OC)cc1)Cc1ccc(C(O)(c2cccc(F)c2)c2cccc(F)c2)o1	11	2
CCOc1ccc(N=C2SC(C(=O)Nc3ccc(C(=O)O)cc3)CC(=O)N2C)cc1 (stereo not given)	1	0
COc1ccc(OC)c(C2c3[nH]c4ccccc4c3CCN2S(=O)(=O)c2cc(Br)ccc2OC)c1 (stereo not given)	-16	-9
N#Cc1ccc(COn2nnc3ccccc32)cc1	-9	-5

Compound	NPYLR7 agonist max-min	NPYLR7 agonist
Cc1ccc(Nc2nc3c([nH]2)c(=O)n(C)c(=O)n3C)cc1	4	6
COc1ccc(NC(=S)NCC(c2ccccc2)N(C)C)cc1 (stereo not given)	-1	0
CO[C@H]1CN(C2Cc3ccccc3C2)[C@@H]2CC[C@@H](OC)[C@@H]1C2	27	27
COc1cccc(-c2cc(C(=O)N3CCOCC3)n3nc(-c4ccccc4)cc3n2)c1	11	0
CN1CCN(c2cc(C(F)(F)F)nc(SCc3ccc(C(=O)NCCc4ccccn4)cc3)n2)CC1	9	3
COC(=O)c1ccoc1CN(C)CC(=O)Nc1ccc(Cl)cc1	5	7
Cc1cc(-c2c(-c3ccccc3)ncn2CCO)c(C)n1Cc1cccnc1	-2	0
CCCCN(CC(=O)N1c2ccccc2-n2cccc2C1c1ccc(F)cc1)C(=O)c1ccc(Cl)c(Cl)c1 (stereo not given)	2	-1
CC(C)CCc1noc(CSCC(C)CO)n1 (stereo not given)	-4	1
COC(=O)C1CCN(C(=O)Cc2cc(-c3cc4ccccc4o3)on2)CC1	6	3
CCc1nn2c(N3CCN(C)CC3)cc(C)nc2c1-c1ccccc1	3	2
CCCC1CCC(c2nc(-c3cccnc3)no2)CC1 (stereo not given)	-14	-7
O=C(Cn1nc2c(c1NC(=O)COc1ccccc1)CSC2)NCC1CCCO1 (stereo not given)	-4	-6
Cc1cc(C)c2oc(-c3ccc(NC(=O)c4cccc([N+](=O)[O-])c4)cc3)nc2c1	-3	0
CCOc1ccc(-n2ccnc(NCC(C)c3ccccc3)c2=O)cc1 (stereo not given)	-3	-2
CC(=O)O[C@]1(C(C)=O)CC[C@H]2[C@@H]3C=C(C)C4=CC(=O)CC[C@@H]4[C@H]3CC[C@@]21C	-12	-2
Nc1ccc(N2CCOCC2)cc1	7	10
O=S(=O)(Nc1cccc(F)c1)c1cccs1	-3	-1
Cc1ccc(Cl)cc1Nc1ncccc1C(=O)NCCc1ccc(F)cc1	1	8
CN1CCC(Cc2noc(-c3cccc4c3OCC4)n2)CC1	-4	0
Cc1c(C(=O)N2CCN(C(=O)NC34CC5CC(CC(C5)C3)C4)CC2)cc(-c2ccc(F)cc2)n1-c1ccccc1	-7	-7
